# From PubChem BioAssay
# GPR55 LPI antagonism: inhibition of LPI-stimulated GPR55 beta-arrestin translocation – imaging, U2OS, beta-arrestin-GFP, LPI agonist, primary screen (AID 2013); U2OS GPR55 beta-arrestin-GFP translocation imaging, LPI antagonism; higher % means a stronger effect; inhibition, % at 10 µM; hits with a dose series show IC50 in µM; hit rate 0.13% among 290,000;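 active means spots per cell inhibited over 60%, with over 100 cells counted and total cytoplasm intensity under 500,000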;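 further: U2OS cells stably carrying GPR55 and arrestin-GFP stimulated by 5 µM LPI near EC80; imaged beta-arrestin-GFP aggregate spots per cell after agonist stimulation; plate controls were LPI-stimulated DMSO wells for no effect and DMSO wells without LPI for full effect; some results filed as inactive read as strong as hits; confirmed hits need IC50 under 10 µM and bright autofluorescent wells are also inconclusive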
# GPR35 arrestin U2OS: GPR35 antagonists blocking zaprinast-driven arrestin recruitment, primary screen, imaging, U2OS, beta-arrestin-GFP, zaprinast agonist (AID 2058) | U2OS GPR35 beta-arrestin-GFP translocation imaging, zaprinast antagonism; higher % means a stronger effect | inhibition, % at 10 µM; hits with a dose series show IC50 in µM | hit rate 0.052% among 290,000;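 active means inhibition of at least 50% with at least 30 cells and total cytoplasm GFP at most 10,000,000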
# GPR55 activation: selective activators of receptor GPR55 – imaging, U2OS cells, beta-arrestin-GFP redistribution, primary screen (AID 1961) | U2OS GPR55 beta-arrestin-GFP redistribution imaging; higher % means a stronger effect | one-dose activation, % at 10 µM; EC50 in µM for titrated hits | hit rate 0.048% among 290,000;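 active means activation above 40% with more than 50 cells counted in the well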;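 further: U2OS osteosarcoma cells stably expressing GPR55 and beta-arrestin-GFP; plate controls were DMSO negative control for no effect and LPI positive control for full effect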
# HIV peptide binding: inhibitors of HIV fusion peptide binding, primary screen, biochemical, uHTS, fluorescence dequenching (AID 1986) | cell-free peptide binding, fluorescence dequenching, 30 min; higher % means a stronger effect | one-dose inhibition, % at 20 µM; IC50 in µM for titrated hits | hit rate 0.3% among 290,000; in the data active means inhibition mostly above about 52%, no sharp cut-off; inactive means mostly below about 76%; further: some results filed as inactive read as strong as hits
# Dengue-2 NS5 capping: flavivirus cap methylation enzyme inhibition – biochemical, confirmation dose response, primary screen (AID 588689) | Dengue-2 NS5 methyltransferase capping enzyme assay, biochemical; higher % means a stronger effect | inhibition, % at 25 µM; hits with a dose series show IC50 in µM | hit rate 0.3% among 340,000; in the data active means a potency from the dose series
# An asterisk follows results filed as active; / = no result given; & = joins results of further samples. Not all compounds are listed. The share of hits here may be higher or lower than overall.
entry	SMILES	GPR55 LPI antagonism	GPR55 activation	HIV peptide binding
1	CC[C@@]1(O)C(=O)OCc2c1cc1n(c2=O)Cc2cc3ccccc3nc2-1	-9%	0.2%	0.0%
2	OC1CCCCC1N1CCC(c2ccccc2)CC1 (stereo not given)	16%	-0.1%	2.5%
3	COc1ccccc1CCNCc1cc2c(cc1[N+](=O)[O-])OCO2	30%	0.0%	5.1%
4	CN1C(=O)CN=C(c2ccccc2)c2cc(Cl)ccc21	5%	-0.5%	0.9%
5	C=CCN1CC[C@]23c4c5ccc(O)c4OC2C(=O)CC[C@@]3(O)C1C5 (stereo not given in full)	4%	-0.1%	-2.2%
6	CN1CCc2nc3sc(C(=O)NC(C)(C)C)c(N)c3cc2C1	17%	-0.1%	4.6%
7	COc1ccc2c(c1)[C@]13CCCCC1C(C2)N(C)CC3 (stereo not given in full)	/	/	/
8	CC[C@@H](CO)NC(=O)[C@@H]1C=C2c3cccc4c3c(cn4C)C[C@H]2N(C)C1	10%&5%	0.1%&-0.1%	35%&18%
9	CN1CC[C@@]23CCCC[C@@H]2[C@@H]1Cc1ccc(O)cc13	13%	-0.1%	0.5%
10	O=C1NC(=O)N(c2ccccc2)C(=O)/C1=C/C=C/c1ccco1	-7%	-0.1%	75%
11	COc1ccc(-c2cc(-c3ccccc3)[n+](C)c(-c3ccccc3)c2)cc1	6%	-0.1%	0.2%
12	CC(C)=CCSc1nnc([C@@H](N)Cc2c[nH]c3ccccc23)o1	7%	0.5%	0.9%
13	C=CCn1c(=O)c(C=Nc2cccc([N+](=O)[O-])c2)c(O)n(CCCC)c1=O	13%	-0.1%	151%

entry	Dengue-2 NS5 capping	GPR35 arrestin U2OS
1	/	-1%
2	-13%	5%
3	4%	7%
4	/	-16%
5	-1%	-1%
6	23%	1%
7	-7%	/
8	-1%&-13%	-11%&12%
9	2%	9%
10	-16%	4%
11	4%	-11%
12	-6%	-10%
13	-85%	4%

# Compound profiles, as listed above. Screens in order: GPR55 LPI antagonism, GPR55 activation, HIV peptide binding, Dengue-2 NS5 capping, GPR35 arrestin U2OS
# OC1CCCCC1N1CCC(c2ccccc2)CC1 (stereo not given) is listed with 16%, -0.1%, 2.5%, -13%, 5%
# C=CCN1CC[C@]23c4c5ccc(O)c4OC2C(=O)CC[C@@]3(O)C1C5 (stereo not given in full) is listed with 4%, -0.1%, -2.2%, -1%, -1%
# CN1CC[C@@]23CCCC[C@@H]2[C@@H]1Cc1ccc(O)cc13 is listed with 13%, -0.1%, 0.5%, 2%, 9%

# 4 compounds picked at random from the list so far:
entry	SMILES	GPR55 LPI antagonism	GPR55 activation	HIV peptide binding
12	CC(C)=CCSc1nnc([C@@H](N)Cc2c[nH]c3ccccc23)o1	7%	0.5%	0.9%
10	O=C1NC(=O)N(c2ccccc2)C(=O)/C1=C/C=C/c1ccco1	-7%	-0.1%	75%
11	COc1ccc(-c2cc(-c3ccccc3)[n+](C)c(-c3ccccc3)c2)cc1	6%	-0.1%	0.2%
7	COc1ccc2c(c1)[C@]13CCCCC1C(C2)N(C)CC3 (stereo not given in full)	/	/	/

entry	Dengue-2 NS5 capping	GPR35 arrestin U2OS
12	-6%	-10%
10	-16%	4%
11	4%	-11%
7	-7%	/
